GLA inh pH 4.5 – alpha-galactosidase A (human) inhibition, pH 4.5. P06280. purified enzyme, 4-MU-alpha-Gal fluorescence, pH 4.5. activity change, negative = inhibition, % at 105 µM. 230,000 tested, under 10 active; inconclusive = small, poorly fitted or top-dose-only inhibition, or a rising curve; inactive = flat fitted curve, though single readings scatter; no compound was filed as active;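 also: 0% = full activity with enzyme and -100% = basal without enzyme; dose as in the result columns while the protocol names 77 µM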
Target sequence (P06280 whole entry, looked up): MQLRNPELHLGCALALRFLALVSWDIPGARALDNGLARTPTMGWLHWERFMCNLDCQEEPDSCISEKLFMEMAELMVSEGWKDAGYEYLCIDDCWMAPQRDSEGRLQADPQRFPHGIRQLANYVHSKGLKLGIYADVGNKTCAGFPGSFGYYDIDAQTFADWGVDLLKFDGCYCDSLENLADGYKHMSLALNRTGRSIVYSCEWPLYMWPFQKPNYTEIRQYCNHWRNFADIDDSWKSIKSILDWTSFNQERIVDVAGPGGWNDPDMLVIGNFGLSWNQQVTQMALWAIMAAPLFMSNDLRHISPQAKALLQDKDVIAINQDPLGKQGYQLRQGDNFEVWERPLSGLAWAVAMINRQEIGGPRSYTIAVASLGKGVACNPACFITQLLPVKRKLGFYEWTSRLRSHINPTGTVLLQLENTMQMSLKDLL
* hit, by the source's call; & = joins results of further samples. A portion of the library (hit frequency here may not be typical).

SMILES | GLA inh pH 4.5
C[C@@]12CC[C@H]3[C@@H](CC[C@@H]4C[C@H]5S[C@H]5C[C@]43C)[C@H]1CC[C@H]2O | 0
C=CCN1C[C@H](C)N([C@H](c2ccc(C(=O)N(CC)CC)cc2)c2cccc(O)c2)C[C@H]1C | -3
Oc1ccc2c3c1O[C@H]1[C@@H](O)CC[C@]4(O)[C@H](C2)N(CC2CCC2)CC[C@@]314 | -2
CN(C)[C@@H]1C(=O)C(C(N)=O)=C(O)[C@]2(O)C(=O)C3=C(O)c4c(O)cccc4[C@@](C)(O)[C@H]3[C@H](O)[C@@H]12 | 8
CCOC(=O)c1ncc2[nH]c3ccc(OCc4ccccc4)cc3c2c1COC | 2
NC(=O)CN1CC(O)CC1=O (stereo not given) | -2
CC([C@H](O)c1ccccc1)N(C)C (stereo not given in full) | -3
CN1[C@@H]2CC[C@H]1CC(OC(c1ccc(F)cc1)c1ccc(F)cc1)C2 (stereo not given in full) | -12
COc1cc2c(cc1OC)-c1c(O)c(OC)cc3c1[C@H](C2)N(C)CC3 | 15
CC/C=C\C/C=C\C/C=C\C/C=C\C/C=C\CCCC(=O)NCCO | -19

Grouped by structure, the entries above containing a carbonyl joined to an NH by a bond outside any ring (three)
SMILES | GLA inh pH 4.5
CN(C)[C@@H]1C(=O)C(C(N)=O)=C(O)[C@]2(O)C(=O)C3=C(O)c4c(O)cccc4[C@@](C)(O)[C@H]3[C@H](O)[C@@H]12 | 8
NC(=O)CN1CC(O)CC1=O (stereo not given) | -2
CC/C=C\C/C=C\C/C=C\C/C=C\C/C=C\CCCC(=O)NCCO | -19

The listing continues:
SMILES | GLA inh pH 4.5
C#CC1(O)CCC2C3CCC4=CC(=O)CCC4(C)C3CCC21C (stereo not given) | 2
CC[C@H](CO)NC(=O)[C@H]1C=C2c3cccc4[nH]cc(c34)C[C@@H]2N(C)C1 | 0
CCCCC/C=C\C/C=C\CCCCCCCCCC(=O)NCCc1ccc(O)c(O)c1 | -7
CN1C[C@H](CO)C=C2c3cccc4[nH]cc(c34)C[C@@H]21 | 11
NCC(CP(=O)(O)O)c1ccc(Cl)cc1 (stereo not given) | -7
CCOC(=O)c1ncn2c1CN(C)C(=O)c1cc(N=[N+]=[N-])ccc1-2 | -4
O=C(NCNC(=O)N[C@H]1C(=O)NC(=O)N1CO)N[C@H]1C(=O)NC(=O)N1CO | -7
COC1C(O)C(OC2CC[C@]3(C=O)C4C(OC(C)=O)C[C@@]5(C)C(C6=CC(=O)OC6)CC[C@]5(O)C4CC[C@]3(O)C2)OC(C)C1OC(C)=O (stereo not given in full) | -6
NC(CCCCCP(=O)(O)O)C(=O)O (stereo not given) | 5
COc1ccc(CNC(=O)/C=C\c2ccc3[nH]cc(CCN(C)C)c3c2)cc1 | -5

Individual results from the entries so far:
GLA inh pH 4.5 with COc1cc2c(cc1OC)-c1c(O)c(OC)cc3c1[C@H](C2)N(C)CC3 → 15
GLA inh pH 4.5 with CCCCC/C=C\C/C=C\CCCCCCCCCC(=O)NCCc1ccc(O)c(O)c1 → -7
GLA inh pH 4.5 with NC(=O)CN1CC(O)CC1=O (stereo not given) → -2
GLA inh pH 4.5 with NCC(CP(=O)(O)O)c1ccc(Cl)cc1 (stereo not given) → -7

Next part
SMILES | GLA inh pH 4.5
CCOC(=O)c1ncn2c1[C@@H]1CCCN1C(=O)c1cc(OC)ccc1-2 | -9
CC(=O)OC1C2C(OC(=O)Cc3ccccc3)C(C)CC2(OC(C)=O)C(=O)/C(C)=C/C2C(CC[C@@]13CO3)C2(C)C (stereo not given in full) | 2
O=C1CC[C@@]2(O)[C@H]3Cc4ccc(O)c5c4[C@@]2(CCN3CC2CC2)[C@@H]1O5 | 0
CCCCN(CC)c1c([N+](=O)[O-])cc(C(F)(F)F)cc1[N+](=O)[O-] | -6
NCC[C@H](O)C(=O)N[C@H]1C[C@@H](N)[C@@H](O[C@H]2O[C@@H](CN)[C@@H](O)[C@@H](O)[C@@H]2N)[C@@H](O[C@H]2O[C@@H](CO)[C@@H](O)[C@@H]2O)[C@@H]1O | 2
Oc1ccc2c3c1O[C@H]1c4[nH]c5ccccc5c4C[C@@]4(O)C(C2)N(CC2CC2)CCC314 (stereo not given in full) | -13
C=CCN1C[C@@H](C)N([C@H](c2ccc(C(=O)N(CC)CC)cc2)c2cccc(OC)c2)C[C@@H]1C | -18
COc1cc2c(cc1OC)-c1c(OC)c(OC)c(CO)c3c1C(C2)N(C)CC3 (stereo not given) | -3
CN1CCN(C(=O)O[C@@H]2c3nccnc3C(=O)N2c2ccc(Cl)cn2)CC1 | -1
COC(=O)[C@@]1(Cc2ccccc2)[C@H]2c3cc(C(=O)N(C)C)[nH]c3C[C@H]2CN1C(=O)c1ccccc1 | -10
ClC1=C(Cl)C2(Cl)C3C4C=CC(C4)C3C1(Cl)C2(Cl)Cl (stereo not given) | -4
CNNC | -4
N[C@H](CCP(=O)(O)O)C(=O)O | 3&-2
C/C=C1\C[C@H](C)[C@@](O)(CO)C(=O)OCC2=CCN3CC[C@@H](OC1=O)[C@@H]23 | 4
CCC1CN2CCC1CC2C(O)c1ccnc2ccccc12 (stereo not given) | -6
CCCCC[C@@H](/C=C/C=C\C/C=C\C/C=C\CCCC(=O)O)OO | 1
COC(=O)C12C/C=C\Cc3ccccc3[C@@H]1CNC2=O (stereo not given in full) | -2
O=C1NO[C@H]2[C@@H]1CN[C@@H]2C(=O)O | 0
CCCCCC[C@H]1C(=O)O[C@H](C)[C@H](NC(=O)c2cccc(NC=O)c2O)C(=O)O[C@@H](C)[C@H]1OC(=O)CC(C)C | -20
CC(=O)[C@H]1CCC2C3CC[C@H]4C[C@H](O)CC[C@]4(C)C3CC[C@@]21C (stereo not given in full) | -5
COc1cc2c(cc1OC)[C@@H]1C(=O)c3ccc4c(c3OC1CO2)CC(C(C)C)O4 (stereo not given in full) | -23
CO[C@H]1C=C2CCN(C)[C@@H]2[C@@H]2c3cc4c(cc3C(=O)O[C@H]21)OCO4 | -4
COc1cc2c(c(OC)c1OC)-c1ccc(O)c(=O)cc1[C@H](N)CC2 | -5
COC(=O)COc1cc(Cl)c(Cl)cc1Cl | -1
C=CCN1C[C@H](C)N([C@@H](c2ccccc2)c2ccc(C(=O)N(CC)CC)cc2)C[C@H]1C | 1
O=c1oc2ccccc2c(O)c1Cc1c(O)c2ccccc2oc1=O | -5&-1
CC1O[C@@H](OC2CC(O)[C@@]3(CO)C4C(O)C[C@@]5(C)C(C6=CC(=O)OC6)CC[C@]5(O)C4CC[C@]3(O)C2)C(O)C(O)C1O (stereo not given in full) | -1
CNC(=O)O/N=C(/C)SC | 3
Ic1c(C2=CCCCC2)[se]c2ccccc12 | 1
CCN(CC)C(=O)N[C@H]1C=C2c3cccc4[nH]cc(c34)C[C@@H]2N(C)C1 | 3
C[C@@H]1O[C@@H](O[C@H]2C[C@@H](O)[C@]3(CO)[C@H]4[C@H](O)C[C@]5(C)[C@@H]([C@@H]6COC(=O)C6)CC[C@]5(O)[C@@H]4CC[C@]3(O)C2)[C@H](O)[C@H](O)[C@H]1O | -3
COc1cc2c(cc1OC)[C@]13CCN4CC5=CCOC6CC(=O)N2[C@@H]1[C@@H]6C5C[C@@H]43 (stereo not given in full) | 4
C[C@@H]1O[C@H](O[C@@H]2CC[C@@]3(C=O)[C@H]4CC[C@@]5(C)[C@@H](C6=CC(=O)OC6)CC[C@@]5(O)[C@@H]4CC[C@]3(O)C2)C[C@H](O)[C@@H]1O | 7
C/C(=C\[C@@H](N)C(=O)O)CP(=O)(O)O | 1
CCN1C[C@@]2(C)CC[C@@H](OC)[C@@]34C2C(O)[C@@]2(OCO[C@]25CC(OC)C2C[C@@]3(O)C5C2O)C14 (stereo not given in full) | 1
c1cc2c(cc1C1OC[C@@H]3C(c4ccc5c(c4)OCO5)OCC13)OCO2 (stereo not given in full) | -28
Oc1cc2c(cc1O)[C@H]1c3ccccc3CN[C@H]1CC2 | 1
O=C(O)CCC1NCC2CC1CN1CCCCC21 (stereo not given) | -3
COc1ccc(/C=C/c2cc(O)cc(O)c2)cc1 | 5
CCCN1CCO[C@@H]2c3cc(O)ccc3OC[C@@H]21 | -13
C=CCN1CC[C@]23c4c5ccc(O)c4OC2C(=O)CC[C@]3(O)C1C5 (stereo not given in full) | 4
COc1cc2c(cc1OC)[C@H](C)NCC2 | 0
COC1=CC2C3Cc4ccc(OC)c(O)c4[C@]2(CCN3C)CC1=O (stereo not given in full) | 5
COP(=O)(OC)[C@@H](O)C(Cl)(Cl)Cl | 2
O=C(O)C1C2CCC(O2)C1C(=O)O (stereo not given) | 4
CCN[C@]1(c2cccs2)CCCCC1=O | 1
C[N+]1(C)CCc2cc3c(cc2C1C1OC(=O)c2c1ccc1c2OCO1)OCO3 (stereo not given) | 2
CC[N@+]1(C)CCC[C@@H](OC(=O)C(O)(c2ccccc2)c2ccccc2)C1 | 4
C=C1C2C[C@]3(C4CC5[C@@]6(C)CC[C@H](O)[C@@]5(C3CC2=O)C4[N+]([O-])(CC)C6)[C@@H]1O (stereo not given in full) | -6
C=C1C/C(=C\C)C(=O)O[C@@H]2CCN3CC=C(COC(=O)[C@@]1(C)O)[C@H]23 | 5

Quoted from the listing, 3 compounds:
SMILES | GLA inh pH 4.5
NC(CCCCCP(=O)(O)O)C(=O)O (stereo not given) | 5
COc1ccc(CNC(=O)/C=C\c2ccc3[nH]cc(CCN(C)C)c3c2)cc1 | -5
CCOC(=O)c1ncn2c1[C@@H]1CCCN1C(=O)c1cc(OC)ccc1-2 | -9

Other results.
SMILES | GLA inh pH 4.5
CN(C(=O)Cc1ccc(Cl)c(Cl)c1)[C@@H](CN1CCCC1)c1cccc(OCC(=O)O)c1 | -3
CC1=CC(=O)C2=C(C)C[C@H](O)[C@H]3[C@H](C)C(=O)O[C@@H]3C12 (stereo not given in full) | -4
C=C[C@H]1CN2CCC1C[C@@H]2C(O)c1ccnc2ccccc12 (stereo not given in full) | -5
O=C1CS[C@@H](c2ccccc2Cl)c2cc(Cl)ccc2N1 | -3
CN1C[C@@H](C(=O)N[C@@]2(C)O[C@]3(O)C4CCCN4C(=O)[C@@H](Cc4ccccc4)N3C2=O)C=C2c3cccc4[nH]cc(c34)C[C@@H]21 (stereo not given in full) | 1
N#CC(C#N)=NNc1cccc(Cl)c1 | -8
CC1C(=O)OC2CCN3CC=C(COC(=O)[C@](C)(O)[C@]1(C)O)C23 (stereo not given in full) | -1
C[C@H]1CCCC=CC2C[C@H](O)C[C@@H]2[C@H](O)/C=C\C(=O)O1 (stereo not given in full) | 3
CCC(=O)O[C@@](Cc1ccccc1)(c1ccccc1)[C@@H](C)CN(C)C | -5
CCCCC1(C2CCCC2)Cc2cc(OCCCC(=O)O)c(Cl)c(Cl)c2C1=O (stereo not given) | -17
CC(C)(O)C1C2OC(=O)C1[C@]1(O)CC3O[C@@]34C(=O)OC2[C@@]14C (stereo not given in full) | -18
c1ccc([C@H]2CNCc3ccccc32)cc1 | 1
O=C1C=CC[C@@H]2[C@H]3CCCN4CCC[C@@H](CN12)[C@@H]34 | 4
O=C1C=CC(=O)c2c(O)cccc21 | 2
O=c1cccc2n1CC1CC2CN2CCCCC12 (stereo not given) | 2
C=C(CC1(C(C)NP(=O)(c2ccccc2)c2ccccc2)CC1)c1ccccc1 (stereo not given) | -15
OCC(O)[C@H]1O[C@@H]2O[C@H](C(Cl)(Cl)Cl)O[C@@H]2[C@H]1O (stereo not given in full) | -2
CC1(C)C(O)CC(O)[C@]2(C)C1CC(O)[C@]1(C)C2CC[C@@]2(C)C(c3ccoc3)OC(=O)C3O[C@]312 (stereo not given in full) | -7
O=C1OC(c2ccc(O)c(S(=O)(=O)O)c2)(c2ccc(O)c(S(=O)(=O)O)c2)c2c(Br)c(Br)c(Br)c(Br)c21 | -9
COC(=O)C(O)C(O)(CCC(C)C)C(=O)OC1C(OC)=CC23CCCN2CCc2cc4c(cc2C13)OCO4 (stereo not given) | 0
CC1CC(Cl)CCC1C(=O)OC(C)(C)C (stereo not given) | -1
CC[C@@H](CO)NC(=O)[C@H]1C=C2c3cccc4[nH]cc(c34)C[C@H]2N(C)C1 | 3
COc1ccc(OC)c([C@H](O)[C@H](C)N)c1 | 5
NC[C@@H](CC(=O)O)c1ccc(Cl)cc1 | 0&4
NC1C[C@H]1c1ccccc1 (stereo not given in full) | 1
C[C@H]1O[C@H](O[C@H]2[C@H](O)[C@@H](O)[C@@H](O)[C@H](O)[C@@H]2O)[C@@H](N)C[C@@H]1NC(=N)C(=O)O | 3
CCC12C=CCN3CCC4(c5ccc(OC)cc5N(C)C4[C@@](O)(C(=O)OC)C1OC(C)=O)C32 (stereo not given in full) | 0
CCCCCCCCCCCCCCC[C@@H](O)[C@@H](N)COP(=O)(O)O | -6
c1cc2c(c(N3CCNCC3)c1)OCCO2 | 0
OCC1OC(n2cnc3cc(Cl)c(Cl)cc32)C(O)C1O (stereo not given) | -5
C[C@@]12CCC(=O)C=C1C=C[C@H]1[C@H]3CC[C@](O)(CCC(=O)O)[C@]3(C)CC[C@@H]12 | -8
CNC(C)C1CC[C@H](N)[C@@H](OC2C(N)C[C@H](N)[C@@H](OC3OC[C@](C)(O)C(NC)[C@H]3O)C2O)O1 (stereo not given in full) | -1
C=C1C/C(=C/C)C(=O)O[C@@H]2CCN3CC=C(COC(=O)[C@]1(C)O)[C@@H]23 | -2
C[C@]12CCC3C(CC[C@]4(O)CC(O)CC[C@@]34C=O)[C@]1(O)CCC2C1=CC(=O)OC1 (stereo not given in full) | 3

An excerpt of these results, field by field.
C=CCN1C[C@H](C)N([C@H](c2ccc(C(=O)N(CC)CC)cc2)c2cccc(O)c2)C[C@H]1C
  GLA inh pH 4.5: -3
Oc1ccc2c3c1O[C@H]1[C@@H](O)CC[C@]4(O)[C@H](C2)N(CC2CCC2)CC[C@@]314
  GLA inh pH 4.5: -2
CN(C)[C@@H]1C(=O)C(C(N)=O)=C(O)[C@]2(O)C(=O)C3=C(O)c4c(O)cccc4[C@@](C)(O)[C@H]3[C@H](O)[C@@H]12
  GLA inh pH 4.5: 8
